# High-throughput results from PubChem.
# HIV Env fusion – inhibitors of HIV Env-mediated cell fusion; HeLa-JRFL Env/CEM21 cell fusion, luciferase; inhibition, % at 12.3 µM; hit rate 1.1% among 360,000; AID 651610;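 active = mean replicate inhibition score of at least 50 and every replicate individually at or above 50; inconclusive = only one of the two criteria met; inactive = mean below 50 and not all replicates reaching 50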;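 note: 0% = plate neutral controls and 100% = maraviroc near 300 nM; one replicate is shown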
# eIF4H inh – inhibitors of RNA binding by human eIF4H; AID 2012; hit rate 0.94% among 290,000; eIF4H fluorescence polarization binding assay; inhibition, % at 35 µM;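 active = 50% or more with normal probe brightness, or confirmed in later tests; inconclusive = above 50% with abnormal brightness, or retests that disagree; inactive = below 50% or failed in later tests; about a fifth of its hits are not listed in these tables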;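 note: calls also rest on retests at 20 µM and on dose response follow-up; 0% = protein and probe with vehicle and 100% = probe without protein; strong numbers were not always called active; many hits fall short of the cut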
# Yeast UUG start – modulators of start codon recognition fidelity in yeast; activity score, % at 18.7 µM; hit rate 0.13% among 350,000; S. cerevisiae UUG-firefly luciferase reporter, luminescence/redox ratio;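 active = replicate mean at a twofold rise or more, about +100% in these data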;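 note: firefly luciferase made from a UUG start codon reports start codon fidelity; reporter light over untreated wells divided by growth signal over untreated wells; some hits fall short of that in this replicate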
# MT1-MMP act inh – blocks activation of human MT1-MMP | hit rate 0.061% among 360,000 | HT1080 RFP-PRO-GFP cells, GFP/RFP ratio fluorescence, overnight; percent of plate control window, DMSO zero | GFP/RFP ratio change, % at 20 µM | P50281;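 active = GFP/RFP ratio change of at least 30% with cell ATP level not reduced by more than half and red fluorescence within 50% of control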; note: strong numbers were not always called active
#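 system = RFP-PRO-GFP reporter HT1080 cells | dosing = 20 µM single dose, 1% DMSO | timing = overnight cell settling, then overnight compound exposure, 37 °C, 5% CO2 | read-out basis = GFP/RFP fluorescence ratio | controls = DMSO and RFP-L50D-GFP cell wells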
# PABP FP inh – blocks human PABP binding to poly(A) RNA. hit rate 1% among 290,000. P11940. fluorescence polarization. AID 2014. inhibition, % at 35 µM;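 active = 50% or more with normal probe brightness, or confirmed in later tests; inconclusive = above 50% with abnormal brightness, or retests that disagree; inactive = below 50% or failed in later tests; about a fifth of its hits are not listed in these tables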;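 note: calls also rest on retests at 20 µM and on dose response follow-up; controls were probe without protein and protein plus probe with vehicle; some compounds called inactive have numbers as strong as hits; many hits fall short of the cut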
# Target sequence (P11940 whole entry, looked up): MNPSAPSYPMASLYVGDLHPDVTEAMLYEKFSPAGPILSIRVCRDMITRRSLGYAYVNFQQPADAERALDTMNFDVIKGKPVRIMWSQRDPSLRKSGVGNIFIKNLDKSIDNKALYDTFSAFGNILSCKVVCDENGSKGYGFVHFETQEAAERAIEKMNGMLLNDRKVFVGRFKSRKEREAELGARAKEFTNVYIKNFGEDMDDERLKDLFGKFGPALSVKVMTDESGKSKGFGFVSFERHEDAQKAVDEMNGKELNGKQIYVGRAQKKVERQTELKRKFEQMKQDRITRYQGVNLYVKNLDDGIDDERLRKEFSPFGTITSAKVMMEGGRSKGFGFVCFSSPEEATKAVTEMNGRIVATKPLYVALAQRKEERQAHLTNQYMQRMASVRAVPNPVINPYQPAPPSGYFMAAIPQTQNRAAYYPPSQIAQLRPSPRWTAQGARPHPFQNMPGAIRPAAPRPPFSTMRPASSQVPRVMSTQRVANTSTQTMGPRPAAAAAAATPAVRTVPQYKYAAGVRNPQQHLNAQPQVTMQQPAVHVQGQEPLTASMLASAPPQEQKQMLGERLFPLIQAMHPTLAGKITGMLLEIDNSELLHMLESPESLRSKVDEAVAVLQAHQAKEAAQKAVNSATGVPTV
# Rce1 inhib – blocks yeast Ras-converting enzyme. Q03530. calls only. AID 2563. hit rate 0.27% among 290,000. yeast membranes, quenched prenylated peptide cleavage fluorescence;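 active = fall in fluorescence gain of 50% or more versus controls, with final raw signal at or below 3038400; inconclusive = same 50% fall but final raw signal above 3038400; inactive = fall in fluorescence gain under 50%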;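 note: plate controls were neutral control wells for no effect and wells lacking membranes for full effect; tested at 10 µM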
# Target sequence (Q03530 whole entry, looked up): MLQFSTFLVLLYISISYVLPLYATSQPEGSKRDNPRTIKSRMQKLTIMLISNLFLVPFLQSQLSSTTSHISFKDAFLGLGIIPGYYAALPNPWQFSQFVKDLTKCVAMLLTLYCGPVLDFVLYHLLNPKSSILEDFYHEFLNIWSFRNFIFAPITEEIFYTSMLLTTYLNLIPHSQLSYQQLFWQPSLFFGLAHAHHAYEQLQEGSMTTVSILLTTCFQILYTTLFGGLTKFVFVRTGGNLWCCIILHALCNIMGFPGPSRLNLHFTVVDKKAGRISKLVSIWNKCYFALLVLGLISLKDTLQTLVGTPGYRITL
# CSC inhib – blocks cancer stem cells; cancer stem cell-like cells viability, luminescence; hit rate 1.1% among 300,000; inhibition, % at 7.5 µM;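 active = mean at 75% or more and at least half the replicates too; inconclusive = mean and replicates disagree; tested in HMLE shEcad cells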;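 note: 0% = median of negative and 100% = median of positive control wells; the first replicate is given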
# eIF4H inh retest – further read-out of eIF4H inh, marked with its call; inhibition, %; compound at 20 µM; confirmation average;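 mean of two retest wells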
# PABP FP inh retest – also measured in PABP FP inh; calls as there; inhibition, %; compound at 20 µM; confirmation repeats;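 mean of two retest wells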
# MT1-MMP act inh RFP – further read-out of MT1-MMP act inh, marked with its call; RFP signal change, %; measured here: RFP expression control read;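 0 = vehicle wells; hits needed this value within 50% of zero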
# An asterisk follows results filed as active; i = inactive; ? = inconclusive; . = no result given; & = joins results of further samples; ! = repeats disagree.
SMILES,HIV Env fusion,eIF4H inh,Yeast UUG start,MT1-MMP act inh,MT1-MMP act inh RFP,PABP FP inh,Rce1 inhib,CSC inhib,others
CCOC(=O)N1CCC(NC(=O)C2CCN(C(=O)c3cc4oc(C)cc4n3Cc3c(F)cccc3Cl)CC2)CC1,-25,5,.,-1,-1,-9,.,-5,
C/C(=N\NC(N)=S)C1(C)CCCCC1,-24,-2,-16,-2,-4,-3,i,10,
COc1ccc2cc(/C=N/NC(=O)CN(c3ccccc3)S(=O)(=O)c3ccccc3)c(Cl)nc2c1,.,83,.,.,.,2,i,2,eIF4H inh retest=-8;PABP FP inh retest=9
CCCS(=O)(=O)N1CCC(C(=O)N2CCc3ccccc3C2)CC1,.,-5,9,7,5,4,i,-24,
CCOc1cc(C(=O)O)ccc1OCCOc1ccccc1,4,8,5,-3,-4,7,i,-9,
COc1ccc(NS(=O)(=O)c2ccc(S(=O)(=O)N3CCCC3)cc2)cc1Cl,6,-6,-10,4,-1,-8,i,-13,
CC1=NNC(=O)C1C(c1ccccc1)C1C(=O)NN=C1C (stereo unspecified),.,-8,.,.,.,10,i,-12,
CC1CCCCN1C(=O)CCS(=O)(=O)Cc1ccccc1 (stereo unspecified),-15,-10,-4,-2,0,10,i,0,
CCN1CCN(Cc2ccc(NC(=O)c3ccc(C)c(NC(=O)c4c[nH]c5cc(C(F)(F)F)ccc5c4=O)c3)cc2C(F)(F)F)CC1,106*!,-43,-3&-2,-15&2,-30&-2,-49,i,105*,
CN(C)/C=C/c1onc(-c2c(Cl)cccc2Cl)c1C#N,-6,1,.,-22,0,5,i,7,
Cc1ccc(C(=O)NC(C)C2CC3CCC2C3)cc1 (stereo unspecified),2,.,-8,3,-5,.,.,-8,
COC(=O)c1ccc(C(C(=O)NC2CCCCC2)N(CCc2ccccc2)C(=O)Cc2cccs2)cc1 (stereo unspecified),4,-2,-2,3,6,-5,i,14,
C=CCn1c(SCC(=O)Nc2cccc(C)c2)nnc1-c1cnccn1,21,4,-13,2,4,1,i,-9,
COc1ccccc1CNC(=O)/C=C/c1ccc(S(=O)(=O)N2CCOCC2)cc1,20,-8,.,4,1,-6,i,-9,
S=c1[nH]nc(NCCCN2CCOCC2)s1,-2,-10,.,0,6,-1,i,-8,
CC(C1CC1)N(Cc1ccccc1)C(=O)NC(=O)c1cccc(F)c1 (stereo unspecified),-2,-8,-8,0,1,-2,i,-1,
O=C(Nc1cccc(F)c1)C1CCN(c2nnnn2-c2ccccc2)CC1,-19,-6,-3,3,0,-4,i,12,
CCOC(=O)CSc1nc(C)c(CC)c(C)c1C(N)=O,4,-7,-12,4,7,2,i,-9,
COc1ccc(NC(=O)c2cc(-c3cc(Cl)ccc3OC)n[nH]2)c(OC)c1,8,.,-8,6,-5,.,.,.,
CCNC(=O)C1CCCN(C(=O)c2cc(F)ccc2C)CC1 (stereo unspecified),-4,.,-10,-3,4,.,.,.,
N/C(COc1cccc(C(F)(F)F)c1)=N\NC(=O)c1cccnc1Oc1ccccc1,-119,2,-21,1,1,-7,i,0,
O=C(NC(=S)NNC(=O)c1ccco1)c1ccc(F)cc1,2,3,-27,8,6,-4,i,4,
Cc1ccc(CNS(=O)(=O)c2c(C)[nH]c(C)c2C(=O)N2CCCCC2)cc1,0,-9,-5,1,6,-2,i,-30,
COC(=O)c1ccccc1NC(=O)CCC(=O)N1CC(C)Oc2ccc(C)cc21 (stereo unspecified),-3,-5,15,1,-2,0,i,-1,
Cn1c(O)c(C2=c3ccccc3=NC2=O)[nH]c1=S,.,10,.,12,2,1,i,-11,
Clc1cccc(/C=N/Nc2nnc(Cl)c3ccccc23)c1,-94,-6,-5,-2,2,-1,i,-10,
COC(C(=O)Nc1ccnn1C1CCN(Cc2cnn(C(C)C)c2)CC1)c1ccccc1 (stereo unspecified),8,-5,-10,0,-1,-3,i,-13,
CCOc1ccc(N2CC(C(=O)Nc3ccc(S(=O)(=O)N4CCCC4)cc3)CC2=O)cc1 (stereo unspecified),-4,-4,-10,-1,-3,3,i,8,
Cc1oc(-c2cccc(Cl)c2)nc1CN1CCC(C(=O)NCCCN2CCCC2=O)CC1,4,2,-8,2,-2,4,i,.,
COc1ccc2c(c1)c1ncn(Cc3ccc(F)cc3)c(=O)c1n2C,-4,0,-5,4,-4,8,i,49,
COC(=O)c1cc2occc2n1CC(=O)Nc1ccc(OC)c(OC)c1,.,2,2,-4,0,5,i,-17,
COc1ccccc1C1CC(c2c(-c3ccccc3)c3cc(Cl)ccc3[nH]c2=O)=NN1S(C)(=O)=O (stereo unspecified),.,-6,-8,-5,-12,-12,.,10,
CCOC(=O)c1ccc(N(C(=O)c2ccco2)C(C(=O)NC2CCCCC2)c2ccncc2)cc1 (stereo unspecified),14,3,-9,0,2,3,i,-11,
Nc1cccc(C#Cc2ccc3c(=O)c4ccccc4oc3c2)c1,-179,.,-18,-18,-12,.,.,-2,
O=C(NCCC1=CCCCC1)C(=O)NCC1OCCCN1S(=O)(=O)c1cc(F)ccc1F (stereo unspecified),0,2,2,1,-1,9,i,3,
COc1ccc(/C=C/C(=O)NC2CCCCC2C)cc1 (stereo unspecified),2,-6,-17,-4,-8,11,i,-5,
O=C(Nc1ccc(Cl)cc1)C1CC2CCCC(C1)C2=O (stereo unspecified),-9,-7,-18,4,4,4,i,-18,
COC(=O)c1ccccc1NC(=S)N(Cc1ccc2c(c1)OCO2)Cc1cc2ccc(C)cc2[nH]c1=O,-35,2,.,-6,-11,9,i,10,
Cc1ccccc1S(=O)(=O)/N=C(/c1ccccc1)N1CCOCC1,-1,-5,.,0,3,-2,i,-13,
O=C(OCCCCN1C(=O)c2ccccc2C1=O)c1ccc(Br)o1,-1,3,-5,2,3,-7,i,3,
O=C(Nc1ccccc1)c1nc[nH]c1C(=O)NCCCNC(=O)c1[nH]cnc1C(=O)Nc1ccccc1,18,.,-21,-1,4,.,.,-6,
CCN(CCNc1ccc(Cl)cc1[N+](=O)[O-])C(=O)c1cc([N+](=O)[O-])c(N(C)C)cc1OC,-41,-7,.,10,-7,21,i,-16,
COc1ccc(N(CC(=O)NCc2ccc(C)cc2)S(=O)(=O)c2c(C)nn(C)c2C)cc1,13,-6,.,7,1,4,i,-9,
O=C1CC(c2ccccc2)Cc2nc(N3CCc4ccccc43)ncc21 (stereo unspecified),16,.,-11,4,-3,.,i,-19,
CCN(CC)C(=O)/C(=C\c1ccncc1)NC(=O)c1ccccc1,-1,-10,.,-1,1,2,i,.,

# The last three entries of the part before are carried over, then new ones follow:
SMILES,HIV Env fusion,eIF4H inh,Yeast UUG start,MT1-MMP act inh,MT1-MMP act inh RFP,PABP FP inh,Rce1 inhib,CSC inhib,others
COc1ccc(N(CC(=O)NCc2ccc(C)cc2)S(=O)(=O)c2c(C)nn(C)c2C)cc1,13,-6,.,7,1,4,i,-9,
O=C1CC(c2ccccc2)Cc2nc(N3CCc4ccccc43)ncc21 (stereo unspecified),16,.,-11,4,-3,.,i,-19,
CCN(CC)C(=O)/C(=C\c1ccncc1)NC(=O)c1ccccc1,-1,-10,.,-1,1,2,i,.,
CCN(CC(=O)NCc1cccs1)S(=O)(=O)c1ccc(NC(C)=O)cc1,9,-6,.,-1,6,18,i,5,
Cc1ccc(C(=O)OCC(=O)NC2CCCC2)cc1,7,7,-8,3,8,7,i,.,
CN1CCCc2cc(C#N)c(=O)[nH]c21,-27,5,-8,0,7,-6,?,-11,
O=C(NC(C(=O)c1ccccc1)c1ccccc1)c1ccccc1 (stereo unspecified),-5,.,-3,1,3,.,.,.,
COc1cc(/C=C/C(=O)OC(C)C(=O)Nc2ccc(Cl)cn2)ccc1OC(F)F (stereo unspecified),.,.,13,-1,1,.,.,-4,
COC(=O)[C@@]1(C)[C@H]2C(=O)N(Cc3ccccc3)C(=O)[C@H]2[C@H]2CN=C(SCc3ccc(C#N)cc3)N21,75*,.,-4,-2,1,.,.,.,
CC(C)[C@@H](C(=O)N1CCNCC1)n1cc(CCO)nn1,-8,-8,18,-2,2,12,i,-31,
Cc1ccc2nc(C3CCCCC3)c(Cc3cccc(F)c3)n2c1,-11,.,23,3,1,.,.,.,
COC(=O)c1c(NC(=O)C(C)C)sc(C(=O)N2CCOCC2)c1C,-2,3,-1,-1,2,-8,i,-9,
CC1=CC2=NC(=O)/C(=C/c3cccs3)C(=N)N2O1,5,6,.,-1,4,1,i,-7,
CC1(C(=O)NCC2CCOCC2)Cc2c(-c3cccc(C(N)=O)c3)ccnc2O1 (stereo unspecified),1,.,-9,-1,-2,.,.,.,
Cc1ccc2oc(=O)n(Cc3ccc(F)cc3)c2c1,.,-3,-9,-3,0,7,i,2,
C[C@]1(C(=O)NCc2cc(F)cc(C(F)(F)F)c2)C=C[C@@H](Cc2ccccc2)N1C(=O)c1ccccc1,56*,-5,-14,-4,0,0,i,-2,
CCCNC(=O)CCCCn1c(=S)[nH]c2c([nH]c3ccc(OC)cc32)c1=O,-2,-2,.,8,5,6,i,.,
Cc1ccc(CNS(=O)(=O)c2cc3c4c(c2)C(C)C(=O)N4CCC3)cc1 (stereo unspecified),2,.,5,-2,-7,.,i,-7,
CC(C)c1c(C(=O)N/N=C/c2ccoc2)nnn1-c1nonc1N,1,-14,-16,4,5,-7,i,1,
COc1ccccc1C(=O)NCC(c1ccco1)N1CCc2ccccc21 (stereo unspecified),13,.,-2,-4,1,.,i,5,
O=C1/C(=C/c2ccncc2)SC(=S)N1Cc1ccccc1,-94,-5,.,4,2,-4,i,58,
CS(=O)(=O)c1nc2ccccc2n1Cc1ccccc1,11,-2,-13,-4,-8,3,i,7,
OC(c1ccc(F)c(F)c1)c1nc(-c2cccs2)cs1 (stereo unspecified),-4,.,-25,-2,-5,.,.,.,
c1ccc(-n2nnnc2NC2CCCCCC2)cc1,.,-9,-15,6,-6,-9,i,3,
Cc1nn(C)c(C(=O)Nc2ccc(Cn3cccn3)cc2)c1[N+](=O)[O-],13,-2,-14,-3,1,7,i,.,
COc1ccc2nc(N3C(=O)C(O)=C(C(=O)c4ccco4)C3c3ccccc3OC)sc2c1 (stereo unspecified),12,-8,-7,6,2,2,i,8,
O=C(COC(=O)c1cncc(Br)c1)NC1CCCCC1,-9,35,.,-2,3,-3,i,-5,
Cn1nc(C(=O)NCCc2ccc(S(N)(=O)=O)cc2)c2ccccc2c1=O,19,9,1,4,2,5,i,2,
Cc1cc(Nc2cccc(Cl)c2Cl)n2ncnc2n1,-5,-3,-22,3,-5,4,i,-9,
Cc1[nH][nH]c(=O)c1C(c1cc([N+](=O)[O-])ccc1O)c1c(C)[nH][nH]c1=O,25,14,-19,2,3,-8,i,6,
COC(=O)c1ccc(C(=O)OC)c(NS(=O)(=O)c2ccc(NC(C)=O)cc2)c1,.,9,-1,-2,4,7,i,-6,
Cc1ccc(NC(=S)N2CCN(c3ncccn3)CC2)c(C)c1,-1,0,-19,2,3,8,i,0,
CCN1CCN(C(=S)Nc2ccc(Cl)c(Cl)c2)CC1,14,1,-20,3,0,-2,i,1,
O=C(c1ccco1)N1CCN(S(=O)(=O)c2ccc(Cl)cc2)CC1,8,-2,-7,2,0,20,i,-7,
COc1ccc(NC(=O)COC(=O)c2ccc(OCc3ccc(Cl)cc3Cl)c(OC)c2)c(OC)c1,-1,-9,.,4,-1,-12,i,15,

# Only part of the results is shown; count on the stated rates, not on these rows.
